# HNF4A DNA FP: change in binding of human HNF4 alpha to DNA | P41235 | HNF4a-FITC DNA binding, fluorescence polarization, 1 h | activity change, % at 10 µM | hit rate 0.3% among 360,000; in the data active = activity change above about 30%, passing the limit was not always enough;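 also: controls were the assay level and a saturating level of protein; the project sought stronger binding though the title names inhibitors; some compounds called inactive have numbers as strong as hits; positive values seem to mean higher polarization but the record does not say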
# Target sequence (P41235 whole entry, looked up): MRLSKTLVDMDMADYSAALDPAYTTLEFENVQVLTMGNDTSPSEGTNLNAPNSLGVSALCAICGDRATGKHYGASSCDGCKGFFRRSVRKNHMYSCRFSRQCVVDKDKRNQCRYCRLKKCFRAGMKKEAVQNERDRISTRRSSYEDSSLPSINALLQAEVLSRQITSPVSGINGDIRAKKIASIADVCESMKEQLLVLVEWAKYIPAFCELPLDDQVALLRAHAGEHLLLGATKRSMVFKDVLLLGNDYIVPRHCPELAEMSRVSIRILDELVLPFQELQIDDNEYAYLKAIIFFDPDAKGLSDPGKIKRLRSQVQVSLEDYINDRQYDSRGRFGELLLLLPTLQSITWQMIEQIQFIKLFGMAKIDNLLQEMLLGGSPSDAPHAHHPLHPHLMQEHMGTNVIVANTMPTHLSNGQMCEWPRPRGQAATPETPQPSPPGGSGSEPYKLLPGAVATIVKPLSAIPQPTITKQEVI
# Ecoli growth: blocks Escherichia coli growth; OD600, 23 h; active compounds read low; OD600 absorbance (test concentration not listed); hit rate 0.21% among 330,000;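 active = OD600 absorbance below the run mean of sample wells minus 3.6 SD, in any replicate, cut at about 0.56 in these data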;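 also: stock transfer was 300 nL into about 60 µL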
# FGF22 binding: binders of recombinant human FGF22 by thermal shift | hit rate 1.5% among 340,000 | calls only at 9.99 µM | Q9HCT0 | SYPRO orange fluorescence; percent of sucrose octasulfate shift, DMSO zero;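 active = melting point raised past a set limit in the mean and every replicate; three in four hits are not shown here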
# UCH37 DUB inh: human UCH37 deubiquitinating enzyme inhibition; Q9Y5K5; purified proteasome/UCH37, Ub-AMC cleavage fluorescence; inhibition, % (no concentration beside the values); hit rate 0.33% among 330,000;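 active = mean of two replicates above 20%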;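 also: 0% = compound-free wells with enzyme and 100% = wells lacking proteasome; stock transfer was 100 nL into about 20 µL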
# Target sequence (Q9Y5K5 whole entry, looked up): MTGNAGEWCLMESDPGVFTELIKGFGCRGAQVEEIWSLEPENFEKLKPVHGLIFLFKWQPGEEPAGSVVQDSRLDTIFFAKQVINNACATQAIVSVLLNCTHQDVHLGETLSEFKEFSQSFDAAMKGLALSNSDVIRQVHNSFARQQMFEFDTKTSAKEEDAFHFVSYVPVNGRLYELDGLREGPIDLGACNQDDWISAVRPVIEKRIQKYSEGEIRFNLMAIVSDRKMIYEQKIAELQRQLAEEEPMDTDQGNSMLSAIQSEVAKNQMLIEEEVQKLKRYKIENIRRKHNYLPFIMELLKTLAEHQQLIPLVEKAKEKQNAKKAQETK
#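 assay system = human UCH37 enzyme supplied as purified proteasome complex | amount = proteasome at 0.15 nM in the dispensed enzyme solution | schedule = 30 min compound-proteasome preincubation then 25 min substrate reaction, room temperature | measured by = fluorescence, ex 355 nm, em 460 nm | benchmarks = no-proteasome wells (full inhibition) and compound-free wells (no inhibition)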
# Ecoli rRNA inh: inhibitors of bacterial rRNA selective over humanized ribosomes. hit rate 1.6% among 350,000. GFP signal change (wild-type ribosome), % (test concentration not listed). E. coli WT GFP vs humanized-ribosome RFP mutants, fluorescence, 24 h; active compounds read low; DMSO median 0, no signal -100. AID 720706;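 active = significant combined selectivity score with lowered wild-type GFP, culture density cut under 30%, mutant RFP and density less affected; inactive = any of these conditions unmet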; also: one replicate is shown; some compounds called inactive have numbers as strong as hits
# ALR inh: inhibitors of human sulfhydryl oxidase ALR. P55789. purified ALR, DTT oxidation, H2O2 HRP-luminol luminescence. inhibition, % (test concentration not listed). hit rate 3.8% among 290,000. AID 485317;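 active = mean and each replicate at 75% or more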;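 also: stock transfer was 7.5 nL into about 7.5 µL; 0% = neutral wells and 100% = wells with inactivated enzyme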
# Target sequence (P55789 whole entry, looked up): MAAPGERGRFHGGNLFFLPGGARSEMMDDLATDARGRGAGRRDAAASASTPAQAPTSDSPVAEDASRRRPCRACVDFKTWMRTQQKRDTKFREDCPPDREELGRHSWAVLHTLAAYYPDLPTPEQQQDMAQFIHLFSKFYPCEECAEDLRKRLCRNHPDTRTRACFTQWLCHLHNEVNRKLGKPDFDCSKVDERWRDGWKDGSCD
# B2AR ag: agonists of human beta-2 adrenergic receptor inducing internalization; P07550; Am2.2-beta2AR cells, FAP receptor internalization, flow cytometry; reference of the scale not given here; response, % (concentration not given with the values); hit rate 0.43% among 340,000; AID 504454;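 active = response above a set limit, near 3 SD of response in nonfluorescent compounds, cut at about 42% in these data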;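 also: stock transfer was 100 nL into about 11 µL; a reference agonist was the positive control; negative values mostly stem from fluorescent compounds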
# Ecoli rRNA inh OD600: further read-out of Ecoli rRNA inh, marked with its call; OD600 change, %; measured here: OD600 growth;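 optical density of the mix in the first replicate; 0 = DMSO median and -100 = no signal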
# Ecoli rRNA inh RFP: second read-out of Ecoli rRNA inh, no call of its own (marks repeat the call); RFP signal change, %; measured here: RFP humanized mutant strains;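 first replicate; 0 = DMSO median and -100 = no signal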
# Numbers without * were called inactive; i = inactive; nt = not tested or not shown. Only part of the results is shown (hit frequency here may not be typical).
HNF4A DNA FP	Ecoli growth	FGF22 binding	UCH37 DUB inh	Ecoli rRNA inh	Ecoli rRNA inh OD600	Ecoli rRNA inh RFP	SMILES	ALR inh	B2AR ag
3.7	nt	i	nt	12	14	4.6	CN(Cc1ccc(C(F)(F)F)cc1)C(=O)[C@H]1O[C@@H](n2cnc3c(N)ncnc32)[C@H](O)[C@@H]1O	nt	nt
0.4	0.67	i	1.1	12	12	2.0	CC(=O)Nc1c(O)c2cccc3c2n(c1=O)CCC3	3	1
1.0	0.71	i	4.2	0	-18	11	CCOC(=O)C1=C(CNC(C)(C)CC(C)(C)C)NC(=O)NC1c1cccc([N+](=O)[O-])c1 (stereo not drawn)	-3	-3
20	0.7	nt	0.8	nt	nt	nt	Cn1c(SCC(=O)Nc2ccc3c(c2)oc2ccccc23)nnc1-c1ccccc1	-14	-11
2.7	0.67	i	0.2	5	5	1.0	CC(C)c1ccccc1	7	0
7.4	0.7	nt	-14	nt	nt	nt	CC(=O)Nc1cc(-c2nn(C)c(=O)c3ccccc23)ccc1N1CCCCC1	-6	15
53	0.68	nt	8.4	nt	nt	nt	CCN(CC)c1ccc(/C=C(/C#N)c2nc3ccccc3[nH]2)c(OC(C)C)c1	-10	-314
-8.1	0.65	i	1.4	7	1	-0.8	Cc1cc(NC(=O)CSc2nc3ccccc3n2CCC#N)no1	nt	-1
-3.2	0.68	nt	2.6	nt	nt	nt	O=C(CSc1nc2cc3c(cc2c(=O)n1CCC1=CCCCC1)OCO3)NCc1ccco1	-5	-3
1.4	0.68	nt	4.4	nt	nt	nt	CCCS(=O)(=O)N1CCCC(C(=O)NCCCOCC)C1 (stereo not drawn)	-1	-3
-0.6	nt	i	nt	6	4	-1.9	CCCCC(=O)Nc1ccc(Cl)cc1F	nt	nt
-0.6	0.68	i	0.2	5	11	3.0	CC(C)[C@H](NC(N)=O)C(=O)NCCc1ccc(Cl)cc1	-4	-5
1.4	nt	i	nt	37	27	0.7	CCOC(=O)C1=C[C@@H](C(C)C)N(S(=O)(=O)c2ccc(C)cc2)[C@H]1c1ccc(C(C)C)cc1	nt	nt
-0.6	0.74	nt	3.0	nt	nt	nt	CCOC(=O)Nc1cc(C)ccc1OC	-10	3
3.1	nt	i	nt	-57	-78	-20	OC(c1ccc(-c2ccccc2)cc1)c1ncc(-c2ccccc2F)[nH]1 (stereo not drawn)	nt	nt
2.3	0.67	i	2.3	5	-1	1.2	CC(C)CCNC(=O)c1ccc2c(SCC(=O)O)c3c(nc2c1)CCC3	-13	-6

# Shown comma-delimited: twelve of the compounds above
molecule,HNF4A DNA FP,Ecoli growth,FGF22 binding,UCH37 DUB inh,Ecoli rRNA inh,Ecoli rRNA inh OD600,Ecoli rRNA inh RFP,ALR inh,B2AR ag
CC(=O)Nc1c(O)c2cccc3c2n(c1=O)CCC3,0.4,0.67,i,1.1,12,12,2.0,3,1
CCOC(=O)C1=C(CNC(C)(C)CC(C)(C)C)NC(=O)NC1c1cccc([N+](=O)[O-])c1 (stereo not drawn),1.0,0.71,i,4.2,0,-18,11,-3,-3
Cn1c(SCC(=O)Nc2ccc3c(c2)oc2ccccc23)nnc1-c1ccccc1,20,0.7,nt,0.8,nt,nt,nt,-14,-11
CC(C)c1ccccc1,2.7,0.67,i,0.2,5,5,1.0,7,0
CC(=O)Nc1cc(-c2nn(C)c(=O)c3ccccc23)ccc1N1CCCCC1,7.4,0.7,nt,-14,nt,nt,nt,-6,15
CCN(CC)c1ccc(/C=C(/C#N)c2nc3ccccc3[nH]2)c(OC(C)C)c1,53,0.68,nt,8.4,nt,nt,nt,-10,-314
Cc1cc(NC(=O)CSc2nc3ccccc3n2CCC#N)no1,-8.1,0.65,i,1.4,7,1,-0.8,nt,-1
O=C(CSc1nc2cc3c(cc2c(=O)n1CCC1=CCCCC1)OCO3)NCc1ccco1,-3.2,0.68,nt,2.6,nt,nt,nt,-5,-3
CCCS(=O)(=O)N1CCCC(C(=O)NCCCOCC)C1 (stereo not drawn),1.4,0.68,nt,4.4,nt,nt,nt,-1,-3
CCCCC(=O)Nc1ccc(Cl)cc1F,-0.6,nt,i,nt,6,4,-1.9,nt,nt
CC(C)[C@H](NC(N)=O)C(=O)NCCc1ccc(Cl)cc1,-0.6,0.68,i,0.2,5,11,3.0,-4,-5
CCOC(=O)C1=C[C@@H](C(C)C)N(S(=O)(=O)c2ccc(C)cc2)[C@H]1c1ccc(C(C)C)cc1,1.4,nt,i,nt,37,27,0.7,nt,nt

# Continuation.
HNF4A DNA FP	Ecoli growth	FGF22 binding	UCH37 DUB inh	Ecoli rRNA inh	Ecoli rRNA inh OD600	Ecoli rRNA inh RFP	SMILES	ALR inh	B2AR ag
-4.2	0.66	nt	-0.6	nt	nt	nt	CC1CCN(C(=O)c2ccc(COc3ccccc3Cl)o2)CC1	4	-19
0.4	nt	i	nt	8	-7	2.2	Cc1cc(C)n2[nH]c(=O)cc2n1	nt	nt
3.7	0.72	nt	0.5	nt	nt	nt	Cc1ccc(S(=O)(=O)N(C)CC(=O)OCc2nnc(-c3ccccc3)o2)cc1	-8	2
-0.8	0.68	i	-4.1	6	3	-6.3	COc1ccc2c(c1)c(=O)c(C(=O)O)c(-c1ccc3c(c1)OCO3)n2C	-4	3
-0.4	0.63	i	-0.7	16	5	2.1	O=C(c1ccc(Cl)cc1)C1CCCN(Cc2cccn2-c2cccnc2)C1 (stereo not drawn)	-24	-3
-1.6	0.66	i	4.6	-47	-57	-6.6	CC(Oc1cccc(Cl)c1)C(=O)NCCCCc1ccccc1 (stereo not drawn)	-5	-3
-1.0	0.71	nt	3.3	nt	nt	nt	Cc1ccc(/C=C/C(=O)O)cc1S(=O)(=O)NCCCO	-2	-4
2.0	0.74	nt	1.8	nt	nt	nt	O=C(CN1C2CCC1CC(NC(=O)Nc1ccccc1)C2)NCc1ccco1 (stereo not drawn)	-17	-8
-0.4	0.66	i	1.9	4	9	-3.4	O=C(Nc1ccccc1Br)c1cc[n+]([O-])cc1	nt	-1
0.8	0.67	i	3.4	11	9	-1.1	CC(C)OP(=O)(OC(C)C)C(C)NC(=O)Cc1ccccc1 (stereo not drawn)	-14	1
1.2	0.64	nt	2.5	11	11	0.0	CC(=O)N1CCCc2cc(S(=O)(=O)CCC(=O)Nc3cccc(C)c3C)ccc21	-2	-1
1.1	0.7	nt	3.5	nt	nt	nt	CCn1c(SCC(=O)Nc2nccs2)nnc1-c1ccc(C)cc1	-7	17
-3.0	0.7	nt	4.3	nt	nt	nt	O=C1c2ccccc2C(=O)N1CC(O)Cn1nnc2ccccc21 (stereo not drawn)	-6	3
1.0	0.73	nt	-6.6	nt	nt	nt	CSc1nc2sc(-c3ccccc3)cc2c(=O)n1N	nt	-1
0.7	0.71	i	3.7	-35	-39	2.7	COc1cccc(C(=O)NCCSc2c(C)[nH]c3ccccc23)c1OC	55	7
5.5	0.67	i	-0.7	20	24	1.4	Cn1c(SCc2ccccc2Cl)nc2c1c(=O)[nH]c(=O)n2C	2	0
-2.9	0.7	nt	-0.8	nt	nt	nt	O=[N+]([O-])c1cc2c(c(CSc3nnc(Nc4ccccc4)s3)c1)OCOC2	nt	-9
-0.2	nt	i	4.1	1	-1	-4.2	CCN1C(=O)[C@H]2[C@@H](c3ccc(C)cc3)N3C(=O)N(c4ccccc4)C(=O)[C@@]3(C)[C@H]2C1=O	2	5
2.7	0.69	i	-1.7	6	10	-0.4	CCN(C(=O)CCNC(=O)Cn1cnc2ccccc2c1=O)c1cccc(Cl)c1	-8	-6
-0.3	0.65	i	3.0	2	4	-4.0	O=C(COc1ccc([N+](=O)[O-])cc1)Nc1ccc2c(c1)nc1n2CCOC1	-6	-7
-3.1	0.69	i	2.5	2	4	-3.5	COc1cc(NC(=O)c2cc(OC)c(OC)c(OC)c2)cc(-n2cnnn2)c1	4	-4
-0.8	0.73	nt	-0.9	nt	nt	nt	Cn1nnnc1SCC(=O)Nc1ccccc1C(=O)NC1CC1	-3	1
3.0	0.69	nt	-0.5	nt	nt	nt	C=CCn1c(CCNC(=O)c2cccs2)n[nH]c1=S	-1	-14
-0.6	nt	i	nt	12	13	5.7	COc1ccc(CN(C)C(=O)[C@H]2O[C@@H](n3ccc(=O)[nH]c3=O)[C@H](O)[C@@H]2O)cc1OC	nt	nt

# Sorted by the number under Ecoli growth (ascending): three of the compounds above
molecule	Ecoli growth
C=CCn1c(CCNC(=O)c2cccs2)n[nH]c1=S	0.69
O=[N+]([O-])c1cc2c(c(CSc3nnc(Nc4ccccc4)s3)c1)OCOC2	0.7
Cn1nnnc1SCC(=O)Nc1ccccc1C(=O)NC1CC1	0.73

# (more compounds)
HNF4A DNA FP	Ecoli growth	FGF22 binding	UCH37 DUB inh	Ecoli rRNA inh	Ecoli rRNA inh OD600	Ecoli rRNA inh RFP	SMILES	ALR inh	B2AR ag
-1.6	nt	i	nt	nt	nt	nt	CC(C)c1ccc(/C=N/NC(=O)CCNC(=O)c2ccccc2)cc1	-1	0
-0.6	0.74	nt	1.2	nt	nt	nt	O=C(CN1C(=O)C2(OCCCO2)c2ccccc21)NCCc1ccccc1	-11	3
18	0.74	i	-317	-12	-9	12	CNC(=O)c1sc(N2N=C3/C(=C/c4ccccc4)CCCC3C2c2ccccc2)nc1C (stereo not drawn)	99*	11
-1.2	0.69	i	5.8	-4	1	1.8	CN(CC(=O)Nc1ccccc1Cl)C(=O)COC(=O)c1cc([N+](=O)[O-])ccc1N1CCOCC1	4	4
-8.6	0.68	i	3.1	9	5	-1.5	COc1ccc(NC(=O)CSc2n[nH]c(C(C)C)n2)c([N+](=O)[O-])c1	-8	-2
-6.1	0.7	nt	0.3	nt	nt	nt	CCC(=O)N(C)C(c1ccccc1Cl)c1nnnn1-c1c(C)cccc1C (stereo not drawn)	-23	-1
-3.8	nt	i	nt	17	17	1.8	NCC1OC(n2cnc3c(N)ncnc32)CC1O (stereo not drawn)	nt	-9
-2.5	0.69	i	0.2	-7	-3	-0.2	Cc1cccc(NC(=O)C2CCN(S(=O)(=O)c3ccc4c(c3)OCCO4)CC2)n1	1	-9
-2.0	0.69	i	-12	-3	-9	-3.9	O=C(NCc1ccc2c3c(cccc13)C(=O)N2)c1cccs1	nt	-3
1.4	nt	i	0.8	-5	-3	-2.2	CCO[C@H]1OC(C(=O)Nc2ccccc2)=C[C@@H](c2coc3ccccc3c2=O)[C@@H]1CCCO	nt	2
4.7	nt	nt	nt	nt	nt	nt	O=C(CN1CCN(c2ccc([N+](=O)[O-])cc2)CC1)Nc1ccccn1	21	0
2.1	0.77	nt	2.1	nt	nt	nt	COC(=O)C(C)NC(=O)C12CC3CC(CC(C3)C1)C2 (stereo not drawn)	-9	3
0.1	0.66	i	-3.6	1	-2	-0.8	Cc1cccc(NC(=O)CNC(=O)c2ccccc2Cl)n1	-7	11
3.7	0.67	i	-0.7	-6	-12	1.5	O=C(CNC(=O)c1ccc(Cl)cc1Cl)OCC(=O)N1CCN(c2ccccc2)CC1	54	-3
-3.5	nt	i	nt	-36	-59	-5.9	COc1ccc2c(CN(C)Cc3ccccc3)cc(=O)oc2c1	nt	nt

# Screens deposited in PubChem by several laboratories.
